High-throughput results (PubChem)
Six1-Eya2 blk: Six1/Eya2 interaction inhibition | activity change, % (concentration not given with the values) | 360,000 tested, 0.56% active | AlphaScreen GST-Six1/His-Eya2 binding, biochemical; hits give low values; control for the full effect not named in the record | AID 651725 | Q15475+O00167; in the data active = activity change below about -65%; inconclusive = about -30% to -65%; inactive = above about -30%; further: on the % scale 0 is the no-effect control and ±100 the full control effect
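AlphaScreen luminescence read after one hour at 37 °C in darkness. Pin-transferred compounds met GST-Six1 and His-Eya2 protein (5X stock 250 nM/500 nM) plus glutathione donor and Ni-chelate acceptor beads (5X, 50 ug/mL).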
D2 ag: agonists of human D2 dopamine receptor (beta-arrestin) | P14416 | DiscoveRx PathHunter D2 beta-arrestin, luminescence, 90 min; 100% = 57 uM dopamine signal | activation, % (concentration not given with the values) | 360,000 tested, 0.084% active; in the data active = activation above about 40%; inconclusive = about 15% to 40%; inactive = below about 15%; further: compound concentration not given in the record; the text of the record calls up to 30% inactive
Target sequence (P14416 whole entry, looked up): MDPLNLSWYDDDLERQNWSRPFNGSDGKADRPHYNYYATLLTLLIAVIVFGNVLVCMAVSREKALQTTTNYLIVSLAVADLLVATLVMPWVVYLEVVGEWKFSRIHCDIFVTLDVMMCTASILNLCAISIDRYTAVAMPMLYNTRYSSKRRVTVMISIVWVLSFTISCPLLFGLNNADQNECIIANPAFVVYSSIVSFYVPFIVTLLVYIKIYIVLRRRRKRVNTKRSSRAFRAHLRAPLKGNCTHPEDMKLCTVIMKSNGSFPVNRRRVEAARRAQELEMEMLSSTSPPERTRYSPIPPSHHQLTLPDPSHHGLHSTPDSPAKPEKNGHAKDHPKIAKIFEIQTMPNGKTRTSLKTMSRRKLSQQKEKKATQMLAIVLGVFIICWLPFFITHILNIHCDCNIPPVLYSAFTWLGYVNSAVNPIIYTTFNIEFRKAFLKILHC
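DiscoveRx PathHunter D2 beta-arrestin cells (2,100/well) attached overnight, then compound-stimulated 90 min at 37 C in HBSS/10 mM HEPES/0.1% Tween-20 buffer; beta-galactosidase complementation read by luminescence after 1 h at ambient temperature. Dopamine 57 uM final (EC100) as control.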
Sfp inh: blocks B. subtilis Sfp PPTase activity; Q9F4F7; Biochemical Sfp PPTase activity, qHTS; Potency, µM, for the others: max response, negative = inhibition, hits mostly inhibitors; 310,000 tested, 3.5% active; AID 1490; active means well fitted inhibition curve with a large enough effect; inconclusive means small, poorly fitted or top-dose-only effect, or another doubt; inactive means no such curve, though single readings can be large or run the other way;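 further: the enzyme is Sfp with the accession as filed and its product quenches rhodamine fluorescence; potency means the concentration at half of the fitted maximal effect; 0% = enzyme reaction without inhibitor and -100% = no enzyme wells; top concentration of the series not given in the record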
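After 15 min at room temperature with compound, 15 nM Sfp received 5 uM rhodamine-CoA plus 12.5 uM BHQ-2-ybbR (50 mM Hepes pH 7.6, 10 mM MgCl2). Rate came from the fluorescence difference over 30 min, ex 525/em 598 nm.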
CtBP-E1A inh: CtBP/E1A binding inhibition | AlphaScreen GST-E1A/His-CtBP binding, 1536-well; hits give low values; control for the full effect not named in the record | activity change, % (test concentration not listed) | 340,000 tested, 0.49% active | AID 651724; in the data active means activity change below about -65%; inconclusive means about -30% to -65%; inactive means above about -30%; further: on the % scale 0 is the no-effect control and ±100 the full control effect; compound concentration not given in the record
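GST-E1A and His-tagged CtBP (125 nM each as 5X stock) were preincubated with pin-transferred compound for 2 h at 37 °C in the dark, then glutathione donor and nickel acceptor beads were added for 1 h before AlphaScreen reading.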
PINK1 expr mod: changes PINK1 expression; 410,000 tested, 0.2% active; Potency, µM (series often up to 76.6 µM), for the others: at the top dose activation (PINK1 increase), actives largely listed as activators; AID 624263; PINK1 immunofluorescence, high-content cytometry, 24 h; active = well fitted activation curve with a large enough effect; inconclusive = small, poorly fitted or top-dose-only effect; inactive = flat fitted curve, though single readings scatter; cell line not stated here;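 further: potency means the concentration at half of the fitted maximal effect; % of control where 0% means no effect; nearly all actives have a fitted effect of over 65% in size; a mitochondrial uncoupler was the plate control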
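Stable cell line treated 24 h with compounds at 5 concentrations (CCCP controls), then fixed and immunostained for PINK1 plus nuclear and cell stains; PINK1 immunofluorescence quantified by laser-scanning microplate cytometry.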
TRPV1 potentiator: human TRPV1 potentiation; Q8NER1; TRPV1-expressing cells, Fluo-8 calcium influx, capsaicin EC20 potentiation; host cell line not named in the record; control for the full effect not named in the record; potentiation, % at 8.33 µM; 320,000 tested, 0.02% active; active means potentiation above 80%; inconclusive means 30% to 80%; inactive means below 30%; further: 0% is about no effect
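TRPV1-expressing cells were cultured overnight at 35.5C and loaded with Fluo-8 calcium dye for 40 to 90 min at room temperature. After a 10 s baseline, compound was added and calcium influx was read kinetically for 3 min (ex 480/em 520 nm).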
D2 PAM: human D2 receptor positive allosteric modulation; DiscoveRx D2 beta-arrestin cells, luminescence, 90 min; 100% = 57 uM dopamine signal; potentiation, % (no concentration beside the values); 360,000 tested, 0.23% active; AID 624464; active = potentiation of 50% or more; inconclusive = 30% to 50%; inactive = 30% or less;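 further: compound concentration not given in the record; tested on top of an EC20 dose of dopamine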
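D2 cells co-treated with compound plus 50 nM dopamine (EC20) for 90 min at 37 deg C to detect potentiation. Beta-arrestin recruitment was read as enzyme-fragment luminescence after 1 h at ambient temperature. Full response was set by 57 uM dopamine.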
Active calls of the source: *; ? = inconclusive; . = no result given; & = joins results of further samples; [ ] = another dose, or the depositor's remark. Hits appear at their usual frequency. Share with any hit: about 3.7%.

SMILES	Six1-Eya2 blk	D2 ag	Sfp inh	CtBP-E1A inh	PINK1 expr mod	TRPV1 potentiator	D2 PAM
Cc1nn(CCC#N)c(NC(=O)c2ccccc2)c1P(=O)(Nc1ccc(Br)cc1)N1CCOCC1 (stereo not given)	7	1.8	-10%	0	0.7%	-16	-4
CCN(CC)S(=O)(=O)c1ccc(C)c(NC(=O)COC(=O)CNC(=O)c2ccc(C(C)(C)C)cc2)c1	-2	-2.0	8%	9	-1.2%	-6	-4
CCc1ccc(NC(=O)CN(CC(=O)Nc2ccc(CC)cc2)CC(C)O)cc1 (stereo not given)	-4	-1.1	13%	.	1.7%	12	-5
O=C(CCc1ccccc1)Nc1ccc(N2CCOCC2)c(Cl)c1	0	-4.8	-4%	3	0.1%	-1	-9
CCCCOc1ccc(C(=O)NCC2(c3ccc(OC)cc3)CCOCC2)cc1	-3	-2.4	-9%	-11	1.6%	13	-3
COC(=O)C(CSCc1ccccc1)NC(=O)CCNC(=O)OCc1ccccc1 (stereo not given)	-2	-2.6	.	7	0.0%	.	-10
OC(CN1CCN(c2cccc(Cl)c2)CC1)c1ccc(F)cc1 (stereo not given)	-7	6.5	13%	-15	10%	5	-33
CCOC(=O)c1cnn(CCOC(=O)c2ccccc2F)c1NC(=O)c1ccccc1F	-8	-16	2%	-15	-1.8%	-1	-1
CCOC(=O)c1ccc(NC(=O)CN2C(=O)NC3(CCCCCC3)C2=O)cc1	2	-0.2	10%	-4	-0.2%	-4	1
Cc1onc(COc2ccccc2O)c1Br	-3	0.8	14%	5	0.9%	4	-7
COc1ccc(S(=O)(=O)N2CCCCCC2)cc1C(=O)NC1(C)CCS(=O)(=O)C1 (stereo not given)	-2	-0.8	5%	2	0.2%	11	6
Cc1ccc(NC(=O)c2nc[nH]c2C(=O)NCCCCCCNC(=O)c2[nH]cnc2C(=O)Nc2ccc(C)cc2)cc1	1	-3.7	.	7	1.3%	.	-2
Cc1cc2oc(=O)cc(CSc3nc(N)cc(N)n3)c2cc1C	3	1.7	10%	-8	-1.0%	-1	-6
CN1CCN(C(c2ccc(Br)cc2)c2cc(Cl)c3cccnc3c2O)CC1 (stereo not given)	?	-11	50µM*	-90*	-2.2%	4	-17
COc1ccc(-c2ccc(OC)c([C@H]3[C@@H]4C=CCC[C@@]4(C)C(=O)N3Cc3ccccc3)c2)cc1OC	-23	-4.7	?	-8	22%	17	-6
Nn1c(Nc2ccc(Cl)cc2)nncc1=O	-8	-2.5	-6%	-6	2.8%	0	-2
COc1cc(/C=N/NC(=O)/C(=C\c2ccc3c(c2)OCO3)NC(=O)c2ccccc2)ccc1O	-16	-2.7	-16%	1	0.6%	-2	-22
CC(=O)Nc1cccc(C(=O)OC2CCOC2=O)c1 (stereo not given)	-1	-1.1	15%	5	-0.3%	-1	5
COc1ccc(C(=O)N2CCN(C3CCN(Cc4ccccc4)CC3)CC2)cc1OC	8	-8.1	-21%	-8	-0.3%	1	14
CCN(CC)S(=O)(=O)c1ccc(Cl)nc1	4	-5.8	4%	4	0.8%	-7	-8
CSc1ccccc1C(=O)OCC(=O)N1CCCC1=O	7	-4.8	.	-6	-2.6%	1	-6
COc1ccc2c(c1)SC1=NCCS(=O)(=O)N12	4	-0.4	11%	11	1.2%[38.3 µM]	10	1
COc1ccc(NC(=O)C2CCCN2C(=O)Oc2ccccc2)cc1 (stereo not given)	6	-5.1	23%	7	0.3%	-5	-7
COc1ccc(-c2cn[nH]c2C)cc1	1	0.5	-3%	-2	-2.0%	20	-2
CN(C)S(=O)(=O)c1ccc(C(=O)N2CCN=C2SCc2ccccc2)cc1	-21	-0.7	-1%	.	0.8%	-11	1

The final six entries of the part before come first, to join the parts.
SMILES	Six1-Eya2 blk	D2 ag	Sfp inh	CtBP-E1A inh	PINK1 expr mod	TRPV1 potentiator	D2 PAM
CCN(CC)S(=O)(=O)c1ccc(Cl)nc1	4	-5.8	4%	4	0.8%	-7	-8
CSc1ccccc1C(=O)OCC(=O)N1CCCC1=O	7	-4.8	.	-6	-2.6%	1	-6
COc1ccc2c(c1)SC1=NCCS(=O)(=O)N12	4	-0.4	11%	11	1.2%[38.3 µM]	10	1
COc1ccc(NC(=O)C2CCCN2C(=O)Oc2ccccc2)cc1 (stereo not given)	6	-5.1	23%	7	0.3%	-5	-7
COc1ccc(-c2cn[nH]c2C)cc1	1	0.5	-3%	-2	-2.0%	20	-2
CN(C)S(=O)(=O)c1ccc(C(=O)N2CCN=C2SCc2ccccc2)cc1	-21	-0.7	-1%	.	0.8%	-11	1
COC(=O)c1ccccc1NC(=O)N1CCN(c2ccc(OC)cc2)CC1	-3	3.7	11%	-12	3.2%	-6	1
Cc1ccc(C(C)NC(=O)c2ccncc2)cc1C (stereo not given)	-2	3.3	8%	-12	-0.8%	5	6
Cc1c(C(=O)NC(=S)Nc2ccc(NC(=O)c3cccs3)cc2)cccc1[N+](=O)[O-]	-15	-6.3	.	-13	3.2%	.	-2
O=c1cc[nH]c2ccc(Cl)cc12	1	-4.2	16%	8	-0.7%	-9	-3
COc1ccc(C(CNC(=O)CSc2ccc(Br)cc2C)N2CCOCC2)cc1 (stereo not given)	1	-3.8	.	0	-1.3%	-11	-24
Cc1noc(C)c1CSc1ccccc1C(=O)OC(C)C(N)=O (stereo not given)	-1	-1.8	10%	2	0.1%	-19	2
N#C/C(=C\c1cc(Cl)ccc1O)C(=O)NC1CCCCC1	4	-4.4	16%	54	17%[38.3 µM]	-7	-4
CNCC(O)c1ccc(OC(=O)C(C)(C)C)c(OC(=O)C(C)(C)C)c1 (stereo not given)	1	-7.3	.	0	-0.3%	-5	-9
Cc1nn(CC(=O)NC2CCCC2)c(C)c1[N+](=O)[O-]	4	2.6	.	.	0.7%	9	4
O=C(COc1cccc(Oc2ccccc2)c1)Nc1ccc(SC(F)F)cc1	17	-1.6	6%	7	3.2%[38.3 µM]	-1	-4
CC(C)N1CC(C(=O)Nc2ccccc2)CC1=O (stereo not given)	8	1.1	13%	0	2.5%	17	7
Nc1ccn(CCCNC2CCN(Cc3ccccc3)CC2)c(=O)n1	0	-7.5	.	-6	1.8%	.	-1
Cc1cc(C(=O)N2CCN(c3ccc([N+](=O)[O-])cc3)CC2)n[nH]1	20	-3.1	11%	.	5.6%	28	3
COc1ccc(OCC2CCNCC2)cc1	-5	-5.0	5%	-18	-1.8%	-2	-5
c1nc(C2CCCCC2)cc2cc3c(cc12)OCO3	5	-0.3	.	3	8.0%	.	-12
CN1CCN(c2ccccc2NC(=O)c2ccc(N3CCCCC3)c([N+](=O)[O-])c2)CC1	-13	1.0	?	?	1.7%	-9	-9
Cc1ccc(Cl)cc1N(CC(=O)NC1CCCCC1)S(C)(=O)=O	3	0.6	2%	12	-2.5%[38.3 µM]	5	-16
Cc1c(C(=O)NCc2cccnc2)oc2c1C(=O)CC(C)(C)C2	1	-1.7	-9%	0	6.9%[38.3 µM]	-1	-9
O=C(Nc1ccccc1)N1CCN(c2nc3ccccc3s2)CC1	0	-5.3	-13%	12	1.7%	-26	-5
COc1cc(OC)cc(C(=O)NC(C(=O)N2CCc3ccccc3C2)C(C)C)c1 (stereo not given)	0	4.5	4%	-7	7.7%	-17	-6
COc1ccc(OC)c(Cc2nnc(CCC(=O)NC3CCCCCCC3)o2)c1	0	-0.6	25%	7	0.6%	9	-1
Cc1nc(N(C)C)c2sc(=S)n(Cc3ccccc3)c2n1	3	-1.7	2%	7	1.3%	4	0
O=C(O)Cc1nn(Cc2ccc(Cl)cc2)c(=O)c2ccccc12	10	-3.0	18%	4	1.0%	1	-9
Cc1cc(C)c(NC(=O)CN2CCN3CCCC3C2)c(C)c1 (stereo not given)	11&-2	0.5&-0.4	-17%	0&7	-3.6%&-0.4%	-10	-3&-8
COc1ccc(-c2onc(C)c2-c2cscn2)c(O)c1	-1	2.6	19%	3	1.3%	4	-3

Record cards, as listed above.
`O=C(COc1cccc(Oc2ccccc2)c1)Nc1ccc(SC(F)F)cc1` as listed: Six1-Eya2 blk = 17; D2 ag = -1.6; Sfp inh = 6%; CtBP-E1A inh = 7; PINK1 expr mod = 3.2%[38.3 µM]; TRPV1 potentiator = -1; D2 PAM = -4
`CNCC(O)c1ccc(OC(=O)C(C)(C)C)c(OC(=O)C(C)(C)C)c1` (stereo not given) as listed: Six1-Eya2 blk = 1; D2 ag = -7.3; Sfp inh = .; CtBP-E1A inh = 0; PINK1 expr mod = -0.3%; TRPV1 potentiator = -5; D2 PAM = -9

Next structures follow.
SMILES	Six1-Eya2 blk	D2 ag	Sfp inh	CtBP-E1A inh	PINK1 expr mod	TRPV1 potentiator	D2 PAM
Cc1nnc(SCC(=O)c2ccccc2F)n1Cc1ccccc1	3	-4.9	?	.	0.1%	-6	-16
C[C@H](NC(N)=O)C(=O)Nc1ccc(OCc2ccccc2)cc1	-2	-0.4	6%	10	2.0%	1	-1
CCC(=O)N1CCc2cc(S(=O)(=O)CCC(=O)NCc3ccc4c(c3)OCO4)ccc21	0	-1.8	8%	-1	0.4%	8	11
Cc1ccc(C2=N/C(=C\c3cccs3)C(=O)N2Nc2ccccc2)cc1	-23	-5.8	-5%	-17	6.5%	-7	-14
CC(C)NC(=O)CCCOc1ccc(Cl)cc1Cl	2	-2.7	-1%	8	-1.2%[38.3 µM]	-5	-15
Cc1ccc2sc(NC(=O)CN3C(=O)c4ccccc4C3=O)nc2c1C	6	-3.5	6%	-4	4.0%	-10	-4
